# From PubChem BioAssay
# Bead autofluor: compound fluorescence in toxin protease inhibitor counterscreen. fluorescence intensity (test concentration not listed). compound autofluorescence counterscreen, microsphere flow cytometry; stronger effect = higher value. 3.1% of 360,000 active. AID 624483;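 active = at least 3 SD above the mean of all compounds, about 16000 in these data; inconclusive = too few beads counted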;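 also: 100 nL of 1 mM stock went into each well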
# BJeLR lethal: BJeLR cell viability loss; BJeLR (HRASV12) viability, CellTiter-Glo ATP luminescence, 48 h; reference of the scale not given here; inhibition, % (no concentration beside the values); 0.17% of 300,000 active; AID 1554;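 active = replicate mean above 50%; inconclusive = above 50% but judged a plate artefact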;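 also: 50 nL library stock added to about 25 µL; numbers are from one replicate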
# RN4220 kill: S. aureus RN4220 growth inhibition; OD600, 16 h; inhibition, % (no concentration beside the values); 0.33% of 330,000 active; AID 1259311;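 active = z-score of -3 or lower and OD600 up to 0.18 on both plates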;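 also: plate controls were untreated cells for no effect and reference antibiotic for full effect; stock transfer was 100 nL into about 80 µL; one replicate is shown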
# PrP 5UTR inh: inhibition of PrP 5' UTR reporter expression. cell-based PrP 5' UTR mRNA reporter, plate reader. inhibition, % (no concentration beside the values). AID 488862. 0.35% of 340,000 active;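 active = every replicate at 50% or more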;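 also: 0 = median of the neutral control wells; tested in H4 reporter cells; numbers are from one replicate; inactives centre near -14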
# ugtP null kill: kills S. aureus RN4220 lacking UgtP | AID 1259309 | growth inhibition, % (no concentration beside the values) | 0.54% of 330,000 active | S. aureus RN4220 ugtP deletion, OD600 growth, 16 h; some inactives read as strong as hits;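 active = z-score under -3 and OD600 up to 0.15 on both plates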;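 also: plate controls were untreated wells for no effect and antibiotic for full effect; wells of about 80 µL received 100 nL stock; the first replicate is given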
# Mtb hypoxia rep: inhibitors of hypoxia-regulated fluorescent reporter in Mycobacterium tuberculosis; fluorescence inhibition, % (no concentration beside the values); 0.1% of 300,000 active; M. tuberculosis hypoxia-regulated fluorescent reporter, fluorescence;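 active = 35 to 45% if threefold the growth effect, above 45% if 1.5-fold the growth effect; inactive = the rest, general growth blockers included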;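 also: wells of about 50 µL received 100 nL stock; 0% = vehicle wells and 100% = reference inhibitor wells; whole bacteria with a GFP reporter of the hypoxia response; strong numbers were not always called active; many hits fall short of the cut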
# Mtb hypoxia rep growth: also measured in Mtb hypoxia rep; calls as there; growth inhibition, %; measured here: M. tuberculosis growth (absorbance);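 0% = vehicle and 100% = reference antibiotic; read after six days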
# Active calls of the source: *; ? = inconclusive; nt = not tested or not shown.
SMILES,Bead autofluor,BJeLR lethal,RN4220 kill,PrP 5UTR inh,ugtP null kill,Mtb hypoxia rep,Mtb hypoxia rep growth
Cc1ccc(O)c(CNc2cnc3ccccc3c2)c1,nt,-0.3,-1.1,-29.6,-21.0,-13.3,3.0
O=C(Nc1ccc(SC(F)F)cc1)c1ccccc1F,5125,3.5,-0.3,-42.8,-10.5,3.9,9.8
CCOC(=O)c1sc(-c2ccccc2)nc1C,2591,3.6,18.0,-38.8,9.5,10.1,-6.4
CCN(CC)CCN(Cc1cc2cc3c(cc2[nH]c1=O)OCO3)C(=S)NCCCN(C)C,3513,-6.6,5.0,-1.4,5.4,8.1,-1.5
CC(=O)c1ccc(NC(=O)COc2ccccc2C(=O)Nc2ccc(C)cn2)cc1,3218,4.2,-0.1,-25.1,2.4,-4.9,-5.9
Cc1ccc(C2=NN(C(=O)CCCC(=O)O)C(c3ccc4c(c3)OCO4)C2)cc1 (stereo not drawn),4099,6.8,1.3,-25.9,1.6,0.6,2.0
Cc1cc(=O)[nH]c2c1c(C)nn2C1CCOC(C)(C)C1 (stereo not drawn),13080,1.6,-0.6,-22.1,-1.0,2.2,10.7
CCC1(O)CC(c2ccccc2)=NN1C(=O)c1ccccc1F (stereo not drawn),3623,-14.4,2.8,2.4,5.7,-3.5,-6.4
CCOC(=O)C1CCN(C(=O)CNC(=O)Cn2c(C)cc3ccccc3c2=O)CC1,3024,-2.4,1.8,-19.9,10.8,3.6,-5.3
CCC1CCCCN1C(=O)c1nn2cccnc2c1Cl (stereo not drawn),3928,1.1,1.8,0.5,5.5,nt,nt
Nc1cccc(-n2cccc2)c1,3676,-2.0,2.7,-2.2,0.5,14.3,1.0
CC(=O)c1ccc(OCC(=O)N2CCCC2c2ccc3c(c2)OCCCO3)cc1 (stereo not drawn),4295,nt,2.2,-10.9,7.2,-1.2,3.4
CN(C(=O)c1cccc(NC(=O)Cc2ccc([N+](=O)[O-])cc2)c1)C1CCC1,2988,nt,3.5,0.9,4.0,10.1,4.9
COc1ccc(C2C(C#N)=C(N)Oc3n[nH]c(C)c32)cc1Cn1nc(C)c([N+](=O)[O-])c1C (stereo not drawn),2357,5.0,-0.4,-1.1,17.8,nt,nt
O=C(NNS(=O)(=O)c1ccc(Cl)cc1)c1cc(-c2ccccc2)nc2ccccc12,11257,16.4,nt,-21.4,nt,nt,nt
CS(=O)(=O)N1CCC(C(=O)Nc2cc(Cl)ccc2Cl)CC1,4107,4.2,7.2,-12.1,2.1,-1.2,6.6
COc1cccc(Nc2ncnc3ccccc23)c1,13092,-14.7,8.8,-54.0,9.3,5.9,4.8
O=C(c1cc(-c2ccc3c(c2)OCO3)on1)N1CCN(c2ccccc2)CC1,18888*,-4.4,1.5,-116.4,-2.6,7.5,2.4
O=C1[C@@H]2[C@@H]3C[C@@H]([C@H]4ON=C(c5ccc(Cl)cc5)[C@@H]34)[C@@H]2C(=O)N1C1CCCCC1,2540,-0.9,1.8,-29.0,-18.3,9.7,4.9
Cc1cnc2ncc3sccc3c2c1,2574,-1.8,2.9,3.6,3.1,17.3,10.6
Cc1csc(NC(=O)C2CCN(S(=O)(=O)c3ccc4c(c3)oc(=O)n4C)CC2)n1,6686,-5.6,-0.2,-13.9,-18.6,-9.1,5.7
CCc1nc2oc3ccccc3c(=O)c2c(=O)n1-c1ccc(C)cc1,nt,1.5,3.7,nt,-16.5,-2.7,5.9
O=C(Oc1c(-c2ccccc2)c(=O)n2c3c(cccc13)CC2)c1cccc([N+](=O)[O-])c1,?,-0.6,nt,-23.0,nt,nt,nt
CCc1ccc(-c2nn(-c3ccccc3C)cc2C(=O)N2CCN(C3CCS(=O)(=O)C3)CC2)cc1 (stereo not drawn),7463,nt,-1.1,-24.1,7.0,9.1,7.9
COc1ccc(-c2cc(C(F)(F)F)n3nc(C(=O)N4CCCC4)cc3n2)cc1,5885,-9.7,-2.2,-5.8,1.9,nt,nt
Clc1ccc(CSc2nnc(-c3ccncc3)o2)c(Cl)c1,?,8.8,13.3,-6.3,14.1,nt,nt
COc1ccc(CNC(=O)C2CCN(S(=O)(=O)c3ccc4nc5c(c(C(=O)O)c4c3)CC(C)CC5)CC2)cc1 (stereo not drawn),6121,-3.5,0.2,-13.9,0.0,0.4,13.6
O=C(O)c1ccc(CSc2n[nH]c(-c3ccco3)n2)cc1,11087,-20.0,3.8,-13.4,7.2,3.6,3.7
Cc1ccc(N=Cc2nc(/C=C/c3cccc([N+](=O)[O-])c3)oc2O)cc1,22530*,15.6,3.1,4.3,3.8,-0.4,-2.6
CCSc1nc2sc3c(c2c2nnc(SCC(=O)NCc4ccco4)n12)CCCC3,nt,-1.1,1.9,nt,-11.1,7.3,5.4
COc1cc2c(cc1OC)-c1cc(N3CCCCCC3)nc(=O)n1CC2,9441,8.6,4.9,-11.4,6.1,1.7,6.5
Cc1cc(NS(=O)(=O)c2ccc(NC(=O)Nc3ccccc3)cc2)no1,?,-4.7,3.9,-23.3,7.5,11.5,17.2
CN(CCc1ccccc1)C(=O)c1ccc(NC(=O)Cc2ccc(NC(=O)C3CCCN(C(=O)C4CCCC4)C3)cc2)cc1 (stereo not drawn),2961,nt,4.5,-23.3,10.2,0.5,2.4
CCCc1cc(NCc2ccccn2)n2c(nc3ccccc32)c1C#N,4210,4.7,0.6,-7.6,2.5,0.1,9.0
O=C(NC12CC3CC(CC(C3)C1)C2)c1cc2nc(-c3ccco3)cc(C(F)(F)F)n2n1,4900,7.8,-14.5,-16.6,-23.9,nt,nt
Cc1cc(C)n2nc(SCC(=O)N3CCCCC3C)nc2n1 (stereo not drawn),7436,nt,5.6,-10.8,4.5,0.1,4.4
O=C(O)CCc1ccc(S(=O)(=O)Nc2ccccc2N2CCCCC2)cc1,nt,nt,18.2,-8.7,12.0,14.9,2.9
O=c1cn[nH]c2ccccc12,4223,13.3,1.8,-12.2,2.1,-2.2,-9.3
O=C(NCc1ccccn1)c1ccc(NS(=O)(=O)c2ccccc2)cc1,5453,0.1,1.8,-29.7,6.3,10.1,14.8
O=C(CSC1CCCCC1)N1CCN(c2ccccc2)CC1,2761,-2.3,1.3,-22.6,-1.0,nt,nt
CCOc1ccc(N(CC(=O)NCCSCc2ccco2)S(=O)(=O)c2ccc(C)cc2)cc1,5385,0.9,-2.1,-21.5,4.0,-1.8,7.3
COc1cccc(/C=C2\CCc3ccccc3C2=O)c1,3344,6.3,22.6,-35.0,21.2,9.5,3.6
O=C(NC1CCCC1)c1ccc(S(=O)(=O)N2CCCC2)cc1,5416,8.8,9.0,-17.5,-1.7,5.7,7.4
CC(C)C(=O)N1CCN(c2ccc(NC(=O)c3cccs3)cc2)CC1,4570,-4.5,1.0,-35.5,7.1,nt,nt
COc1cc(C2C(C#N)=C(N)OC3=C2C(=O)CC(C)(C)C3)cc2c1OCO2 (stereo not drawn),4266,-5.4,2.7,-4.0,4.8,-2.6,5.9
Cc1cccc(-n2ncc3c(N4CCCC4)ncnc32)c1,7519,-4.4,5.6,-36.7,3.6,19.5,9.7
CCCN(CCC)S(=O)(=O)c1ccc(C(=O)Nc2cccnc2)cc1,4211,11.2,3.6,-10.8,5.9,-15.8,-1.5
C=CCn1c(SCC(N)=O)nc2sc3c(c2c1=O)CCC3,4082,9.4,2.4,-21.8,1.9,8.6,-2.5
CCn1c(SCc2ccc(C(=O)O)cc2)nnc1-c1ccc(Cl)cc1,4001,3.2,3.4,-0.6,2.5,-0.7,3.0
O=C(c1nc2ccc(Cl)cn2c1CN1CCCC(CO)C1)N1CCc2ccccc2C1 (stereo not drawn),5032,-4.8,3.6,-15.2,6.0,-0.1,0.9

# Carrying on:
SMILES,Bead autofluor,BJeLR lethal,RN4220 kill,PrP 5UTR inh,ugtP null kill,Mtb hypoxia rep,Mtb hypoxia rep growth
CC(C)(C)c1ccc(C(=O)Nc2cccc([N+](=O)[O-])c2)cc1,8009,-3.8,8.1,-129.9,-12.8,-1.8,-4.0
Cc1sc2nc(SCC(=O)N3CCCCC3)[nH]c(=O)c2c1C,4252,0.7,2.7,-2.3,1.0,nt,nt
CCN(c1ccc(OC)cc1)S(=O)(=O)c1csc(C(N)=O)c1,4048,3.3,4.8,nt,-3.5,-7.9,4.7
CC(C)OC(=O)CSc1nnc(-c2ccccn2)n1N,nt,6.5,4.2,nt,1.7,-7.8,6.9
Cc1[nH]c(=O)[nH]c(=O)c1C=NNC(=O)CCc1ccc(OC(C)C)cc1,nt,nt,5.0,nt,8.6,3.6,9.2
C=CCn1c(O)c(N=NC(=O)CNC(=O)c2cccs2)c2ccccc21,2173,-0.1,1.6,-26.6,-2.0,-3.8,5.9
CC(=O)Nc1ccc(NC(=O)C(C)OC(=O)c2ccc3c(c2)OCCO3)cc1 (stereo not drawn),4873,-7.3,-1.7,-14.7,7.6,7.1,-7.9
COc1cc(C(c2nnnn2C(C)(C)C)N2CCN(C)CC2)cc(OC)c1OC (stereo not drawn),4778,2.9,-3.4,-10.0,1.7,nt,nt
O=C(Nc1cccc(O)c1)c1ccc2c(c1)C(=O)N(Cc1ccco1)C2=O,?,-0.8,3.6,-6.2,-3.6,6.7,5.9
Nn1c(SCC(=O)NCCC2=CCCCC2)nnc1C1CCCCC1,3819,-11.0,3.6,-16.5,2.9,-3.6,0.2
CCOc1ccc(-c2noc(-c3ccncc3)n2)cc1OCC,2998,6.2,-0.4,-22.1,-10.2,3.1,1.5
O=C(Oc1ccc(/C=N/NC(=O)c2ccccn2)cc1)c1cccc(F)c1,6370,13.4,nt,-59.3,nt,nt,nt
CC(C)n1c(=O)c(C=Nc2ccc(Br)cc2)c(O)n(Cc2ccco2)c1=O,2543,-1.8,3.8,-9.5,-3.9,5.0,5.0
Cc1cc(C(=O)N/N=C/c2cc([N+](=O)[O-])ccc2O)c2ccccc2n1,2241,-1.0,nt,-0.5,nt,nt,nt
COc1cc(/C=N/NC(=O)c2cccs2)ccc1O,3399,8.5,nt,-3.4,nt,nt,nt
Cc1ccc(O)c(N=Nc2ccc(S(=O)(=O)N3CCCC3)cc2)c1,3562,-5.4,3.9,-12.5,4.5,11.8,7.1
Cn1nc(C(=O)OCC(=O)Nc2ccc(S(N)(=O)=O)cc2)c2ccccc2c1=O,4488,-2.8,4.8,-0.4,4.2,7.5,12.2
O=C(CN1CCN(Cc2ccccc2)CC1)Nc1nnc(C(F)(F)F)s1,4307,-7.0,-2.3,-2.4,7.4,4.1,9.4
Cc1c(Cl)c(C(=O)NC2CCCC2)nn1C,3723,-0.1,4.5,-25.6,-2.2,16.6,10.6
O=C(NN=Cc1ccccn1)c1cc(-c2ccc(Cl)cc2)nc2ccccc12,nt,nt,18.9,nt,-2.3,-8.8,-1.7
CC(=O)c1ccccc1OC(=O)c1ccc(-c2ccccc2)cc1,nt,-12.9,9.3,-9.7,100.3*,-1.0,4.0
COc1cc2c(cc1OC)-c1cc(Nc3ccccc3)nc(=O)n1CC2,4090,-7.8,3.7,8.2,-2.3,12.3,9.0
CCOC(=O)c1cnc(-c2ccc(C(F)(F)F)cn2)[nH]c1=O,6300,5.3,8.1,nt,-3.8,-10.9,-14.5
NC(=O)CN1C(=O)C(O)(CC(=O)/C=C\C=C\c2ccccc2)c2ccccc21 (stereo not drawn),8046,10.5,nt,-5.0,nt,nt,nt
CCc1ccccc1NC(=O)Cn1nc(C)n2cccc2c1=O,6607,7.9,4.6,8.4,8.6,3.0,-9.2
COc1cccc(C(=O)Nc2c(C(N)=O)oc3ccccc23)c1,5839,9.5,1.3,-24.2,7.0,10.5,12.7
